LANA-H2A inh – blocks KSHV LANA binding to histone H2A/H2B. Q9QR71. cell-free LANA-H2A/H2B peptide, fluorescence polarization. inhibition, % (no concentration beside the values). actives 0.6% (n = 320,000). AID 2629; in the data active = inhibition mostly above about 10%, no sharp cut-off; inactive = mostly below about 6.7%;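 also: stock transfer was 7.5 nL into about 10 µL; 0% = median of vehicle wells and 100% = median of positive control wells; one replicate is shown; the record names a cut of 25% in any replicate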
Target sequence (Q9QR71 whole entry, looked up): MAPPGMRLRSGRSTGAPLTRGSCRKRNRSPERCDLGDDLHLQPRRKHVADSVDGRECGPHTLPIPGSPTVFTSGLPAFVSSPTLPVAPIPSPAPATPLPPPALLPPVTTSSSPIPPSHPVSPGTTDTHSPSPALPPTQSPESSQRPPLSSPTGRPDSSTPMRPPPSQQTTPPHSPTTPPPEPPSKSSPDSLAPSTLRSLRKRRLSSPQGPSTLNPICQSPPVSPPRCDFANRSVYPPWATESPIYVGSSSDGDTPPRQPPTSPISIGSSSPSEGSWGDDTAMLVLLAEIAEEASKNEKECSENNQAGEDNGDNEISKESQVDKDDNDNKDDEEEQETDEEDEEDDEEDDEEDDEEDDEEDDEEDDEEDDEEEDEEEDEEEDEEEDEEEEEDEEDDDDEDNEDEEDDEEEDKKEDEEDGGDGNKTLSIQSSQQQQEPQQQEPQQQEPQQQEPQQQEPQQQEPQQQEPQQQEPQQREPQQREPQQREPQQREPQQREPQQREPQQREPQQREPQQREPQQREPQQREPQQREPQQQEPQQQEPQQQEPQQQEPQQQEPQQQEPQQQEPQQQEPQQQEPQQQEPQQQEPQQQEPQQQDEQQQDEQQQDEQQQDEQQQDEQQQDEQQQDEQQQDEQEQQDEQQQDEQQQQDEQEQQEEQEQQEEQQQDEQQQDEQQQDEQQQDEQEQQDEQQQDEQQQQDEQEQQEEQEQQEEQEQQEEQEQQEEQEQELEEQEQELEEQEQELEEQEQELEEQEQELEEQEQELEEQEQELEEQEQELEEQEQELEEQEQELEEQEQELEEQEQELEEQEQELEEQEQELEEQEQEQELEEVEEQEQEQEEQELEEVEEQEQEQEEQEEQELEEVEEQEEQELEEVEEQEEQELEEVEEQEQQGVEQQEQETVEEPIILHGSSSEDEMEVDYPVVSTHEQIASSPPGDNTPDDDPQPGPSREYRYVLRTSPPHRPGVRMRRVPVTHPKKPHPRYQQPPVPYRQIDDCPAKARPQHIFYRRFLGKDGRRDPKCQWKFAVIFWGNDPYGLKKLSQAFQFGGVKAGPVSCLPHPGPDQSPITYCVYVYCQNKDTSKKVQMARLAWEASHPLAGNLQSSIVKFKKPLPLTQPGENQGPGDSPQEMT
T cruzi repl – blocks replication of Trypanosoma cruzi; T. cruzi beta-gal in NIH3T3, luminescence, 90 h; inhibition, % (test concentration not listed); actives 1.4% (n = 300,000);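 active = mean inhibition across valid replicates above about 55%, limit read from the data; inconclusive = mean below that limit but half or more replicates reach it; inactive = mean below it, under half of replicates reach it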;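 also: signal also drops with host cell toxicity which is not excluded here; 0% = plate median of DMSO wells and 100% = zero luminescence signal; higher percent means less beta-gal luminescence so fewer parasites; stock transfer was 50 nL into about 50 µL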
RanGTP-Impb inh – disruptors of Ran-importin-beta complex formation – biochemical, FRET, CFP-Ran, YFP-importin-beta, homogeneous, primary screen; actives 1.1% (n = 300,000); AID 2216; cell-free CFP-Ran/YFP-importin-beta FRET ratio; inhibition, % (concentration not given with the values);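 active = most replicates above 15%; inconclusive = exactly half above 15%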;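 also: 0% = DMSO wells and 100% = Ran loaded with GDP instead of GTP; wells of about 40 µL received 100 nL stock; the first replicate is given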
Beta cell apopt – beta cell apoptosis inhibition; INS-1E cytokine-induced death, ATP luminescence, 48 h; percent of positive-control rescue, neutral wells zero; protection from apoptosis, % (concentration not given with the values); actives 0.8% (n = 300,000); AID 435005;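 active = all replicates at 75% or more, or half of them and the mean; inconclusive = half reach 75% but not the mean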;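 also: 0% = cytokine-treated negative control wells and 100% = positive control rescue; higher means more ATP so stronger rescue from cytokine killing; wells of about 40 µL received 100 nL stock; the first replicate is given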
A1 inh – inhibitors of the anti-apoptotic protein A1, read as caspase activation; MEF A1-2A-BIM cells, Caspase-Glo 3/7 luminescence, 3 h; percent of clofoctol response, vehicle zero; caspase activation, % (no concentration beside the values); actives 0.066% (n = 330,000); AID 2462;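 active = over half of replicate activation scores above 10%, or exactly half above 10 with the replicate mean above 10; inconclusive = replicate mean below 10 yet half the replicates above 10; inactive = over half of replicates below 10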;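 also: wells of about 30 µL received 50 nL stock; many hits fall short of the cut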
Vif A3G – inhibitors of Vif binding to APOBEC3G peptide, primary screen, biochemical, TR-FRET, GST-Vif 1-94, biotin-A3G peptide, dose response retest (AID 1117319) | inhibition, %, or IC50 in µM where a hit was titrated | actives 0.57% (n = 260,000) | TR-FRET GST-Vif / biotin-A3G peptide binding; higher % means a stronger effect; test concentration not given here; strong numbers were not always called active;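 active = above the screen mean plus three standard deviations and confirmed in dose response; inconclusive = results disagree or hit not tested in dose response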;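 also: Vif residues 1-94 fused to GST binding biotinylated APOBEC3G peptide 110-148; 0% = full assay without inhibitor and 100% = GST in place of GST-Vif; retest series ran down from 100 µM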
Calb FLC – affects C. albicans growth with fluconazole | growth inhibition, % (test concentration not listed) | actives 0.57% (n = 300,000) | C. albicans CaCi-2 (fluconazole-resistant clinical isolate) + fluconazole, Alamar Blue growth, 48 h | AID 1979;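 active = most replicates above 75%; inconclusive = exactly half above 75%; inactive = most below 75%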;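 also: all wells also contain fluconazole at 8 µg/ml as a sub-toxic cotreatment; 0% = median of DMSO wells and 100% = median of geldanamycin control wells; wells of about 8 µL received 7.5 nL stock; the first replicate is given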
MLL AF4-AF9 inh – inhibitors of human MLL-AF4/AF9 interaction. inhibition, % at 10 µM. AlphaScreen, biotin-AF4 peptide binding to FLAG-AF9. actives 0.47% (n = 350,000). P42568;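 active = every replicate reaching a set inhibition limit, whatever the replicate mean, cut at about 25% in these data; inconclusive = mean inhibition reaches that limit but some replicates miss it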;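 also: 0% = plate neutral control median and 100% = total signal loss; the record names both 10 and 1 µM as test concentration; the first replicate is given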
Numbers without * were called inactive; i = inactive; ? = inconclusive; . = no result given.

SMILES	LANA-H2A inh	T cruzi repl	RanGTP-Impb inh	Beta cell apopt	A1 inh	Vif A3G	Calb FLC	MLL AF4-AF9 inh
Cc1cc(C)c(-c2cc(NC(=O)COC(=O)c3ccc(CO)cc3)n(-c3ccccc3)n2)cc1C	0.2	-5	0.1	3	-0.3	0%	?	.
CC(=O)c1cnc(-c2ccccc2Cl)s1	2.7	-13	1.8	2	-0.4	8%	-2	1.6
c1cncc(CSc2nnc3ccc(-c4cccs4)nn23)c1	-2.1	-12	6.5	-5	-0.6	-9%	13	0.3
COc1ccc(Cl)cc1NC(=O)CN(C)C(=O)Cn1c(=O)oc2ccccc21	2.6	-9	.	-7	-0.2	.	1	-7.4
CCCS(=O)(=O)N1CCCC(C(=O)c2cccc(Cl)c2)C1 (stereo not given)	-8.1	-1	-1.2	-1	0.0	-5%	-4	-1.2
Cc1cccc(C)c1-n1c(C)nn(Cc2ccc([N+](=O)[O-])cc2)c1=O	0.7	-20	4.0	1	-1.2	3%	-19	0.5
CCOC(=O)Cc1c(C)nc2c(-c3cccc(Br)c3)cnn2c1C	4.7	-12	2.6	.	0.4	15%	10	-7.3
S=c1nc(-c2ccc(Br)cc2)[nH]c2ccccc12	-7.8	-3	3.2	5	-0.7	.	4	-6.4
CCn1cc(C(=O)N2CCN(C(=O)c3ccco3)CC2)c2cc(OC)c(OC)cc2c1=O	-2.0	-9	5.2	-1	0.6	3%	1	.
CCC1(CC)Cc2ccccc2-c2nc(CCl)[nH]c(=O)c21	4.2	12	4.6	1	0.0	.	14	-11
COc1ccccc1NC(=O)N1CCc2c([nH]c3ccccc23)C1C(F)(F)F (stereo not given)	-2.1	23	-0.6	0	0.9	.	5	2.4
CC1(C)Cc2c(C#N)c(NCCN3CCOCC3)nc(-c3ccco3)c2CO1	-0.6	7	1.0	-4	-0.5	21%	-6	.
C=CCc1ccccc1OCC(O)CN(C(C)C)C(C)C (stereo not given)	-1.2	12	?	2	-1.1	0%	5	.
Cc1ccc(N2CC(C(=O)OCC(=O)c3ccc([N+](=O)[O-])cc3)CC2=O)cc1 (stereo not given)	2.4	-14	-2.1	-1	0.7	.	-4	-1.0
Cc1ccc(Nc2nc(N)nc(CN3CCN(c4ccccc4F)CC3)n2)cc1	-1.0	-2	-0.6	-1	0.9	13%	50	.
CCC(=O)N1CCN(C(=O)CC)C1c1ccccc1	1.0	-1	-3.6	-9	0.1	0%	5	.
Cc1cc(C)n2cc(CSC3=NCCS3)nc2n1	0.1	-4	0.0	5	-0.3	-3%	-3	.
O=C(NCc1ccccc1)C1Nc2ccc(OC(F)(F)F)cc2C2C=CCC12 (stereo not given)	0.5	7	-0.6	-2	0.1	.	-3	.
CS(=O)(=O)N1CCN(CC2CC3C=CC2C3)CC1 (stereo not given)	1.6	?	2.4	5	-0.2	2%	-11	.
CCOC(=O)c1cc(C(=O)OCC)c(=O)[nH]c1N1CCCCC1	-2.9	-5	-3.8	4	0.9	.	-4	0.6
O=C(NCc1ccco1)c1cc(S(=O)(=O)N2CCCC2)ccc1Cl	6.3	-9	1.4	0	0.3	.	-6	-1.9
O=C(Nc1ccc(CN2CCOCC2)cc1)c1ccc(Br)cc1	1.7	13	-1.2	-4	0.2	.	12	0.3
Cc1cc(C)cc(NC(=S)/C(=C(\[O-])c2ccc(Cl)cc2Cl)[n+]2ccccc2)c1	3.6	-9	-9.7	14	-0.3	4%	7	-24
O=C(CSc1nc2ccccc2n1-c1ccccc1)Nc1ncc(Cl)cc1Cl	0.5	-7	-1.9	0	-0.2	.	22	-17
CCn1c(SCC(=O)Nc2cc(NC(C)=O)ccc2OC)nnc1-c1ccccn1	-5.2	-7	0.8	-1	1.3	31%	-1	.

Additional structures
SMILES	LANA-H2A inh	T cruzi repl	RanGTP-Impb inh	Beta cell apopt	A1 inh	Vif A3G	Calb FLC	MLL AF4-AF9 inh
O=C(COc1ccccc1)Nc1ccc(S(=O)(=O)NCc2ccco2)cc1	-2.7	-11	-1.7	-4	0.7	13%	12	.
Cc1ccc(C(=O)N/C(=C/c2cccs2)C(=O)N2CCCCCC2)cc1	2.4	-9	2.1	-10	0.3	3%	-30	.
CC1CC(=O)Nc2ccccc2N1S(=O)(=O)c1cccc(F)c1 (stereo not given)	2.4	6	3.1	-4	0.0	.	-5	.
O=C(c1ccco1)N1CCN(c2ccc([N+](=O)[O-])cn2)CC1	-3.2	-10	7.0	3	-0.2	0%	20	-1.7
COC(=O)c1cc(-c2c(C)oc3cc(O)ccc3c2=O)c(C)o1	-4.0	-11	-2.3	-2	0.4	23%	7	.
O=C(NCC(c1cccnc1)N1CCN(c2ccc(F)cc2)CC1)c1ccc(F)cc1 (stereo not given)	3.2	60*	0.7	2	1.0	3%	9	.
O=C(NCc1ccccc1)c1ncn[nH]1	-0.2	-10	2.2	1	0.1	-9%	-1	-0.9
O=C(CN1CCOCC1)Nc1c2c(nc3c1CCC3)CCC2	2.4	3	?	-8	0.1	?	-3	.
COc1ccc(CNC(=O)CN(C(=O)c2csnn2)c2cccc(F)c2)cc1	2.6	-6	-1.1	-5	0.2	.	0	-1.9
C=CCOc1c(CNc2ccc(S(N)(=O)=O)cc2)cccc1OC	0.1	-8	1.5	-5	-0.5	?	.	.
O=C(CSC1=NS(=O)(=O)c2ccccc2N1)Nc1ccccc1F	.	-3	-2.1	-1	1.0	-1%	1	1.4
COC1CCCCC1Nc1cc(C)cc(C)c1 (stereo not given)	i	15	-1.3	0	0.1	30%	5	-0.3
Cc1cc(C)n(CCNC(=O)CC2C(=O)NCCN2CC2CCCCC2)n1 (stereo not given)	-5.1	4	3.6	-3	-0.6	8%	-23	-1.5
Cc1onc(-c2ccccc2Cl)c1C(=O)N1CCN(S(=O)(=O)c2ccc(F)c(F)c2)CC1	-0.4	19	-2.2	6	-0.4	-2%	-1	-4.3
O=S(=O)(Cc1ccccc1)N1CCCC1	1.0	.	6.4	0	0.3	1%	15	.
CCOC(=O)CSc1nnc(CNC(=O)c2cc(OC)c(OC)c(OC)c2)n1C	4.0	-3	-0.8	-2	-0.2	73%	-4	-12
Cc1ccc(C)c(Cn2c3ccccc3c3cnn(CC(=O)NCCN4CCOCC4)c(=O)c32)c1	-2.5	4	2.4	4	0.0	.	-1	3.0
CC(C)c1nnc(NC(=O)CSc2nc3ccccc3[nH]2)s1	-2.4	15	?	1	-0.5	4%	-10	-2.1
OC(c1ccc(Cl)cc1)c1nccc2ccccc12 (stereo not given)	8.4	-2	1.0	-12	-0.3	.	-27	-0.4
Cc1ccc(Cn2ncc3c(N4CCN(C)CC4)ncnc32)cc1	-2.1	25	-1.9	9	-0.2	-5%	2	3.8
Cc1cc(C)c2cc(CN(CCO)C(=O)Nc3ccc(Cl)cc3)c(=O)[nH]c2c1	0.9	49	1.5	2	-1.1	14%	-2	.
COc1cc(Cl)c(C)cc1NC(=O)CSC	4.9	2	-0.2	0	-0.1	?	-2	.
CC(OC(=O)c1cc(=O)[nH]c2ccccc12)C(=O)c1ccccc1 (stereo not given)	-9.9	-4	-0.7	-3	-0.5	-1%	1	7.4
CCOC(=O)C1(Cc2ccc(OC)cc2)CCN(C(=O)c2ccoc2C)CC1	-0.4	2	7.4	0	0.0	-12%	-17	2.2
CCC(=NCc1ccc(Cl)c(Cl)c1)c1nc(-c2ccco2)oc1O	-2.6	20	-17	5	-0.1	1%	-3	-8.9

(continued)
SMILES	LANA-H2A inh	T cruzi repl	RanGTP-Impb inh	Beta cell apopt	A1 inh	Vif A3G	Calb FLC	MLL AF4-AF9 inh
O=C1COc2ccc(C(=O)/C=C/c3ccccc3)cc2N1	4.1	?	1.2	-2	0.0	6%	15	.
CC(=O)N1CC(=O)N(CC(=O)Nc2ccc(Br)cc2)C1=S	3.2	-11	3.1	4	-0.1	.	28	-0.2
O=C(CC1CCCCC1)NCCS(=O)(=O)N1CCN(c2ccccc2)CC1	-5.5	12	-0.3	4	-0.7	.	-2	-14
CCOC(=O)N1CCN(CCC(=O)Nc2ccc(F)c(F)c2)CC1	-5.1	3	-2.0	.	-0.8	.	4	-2.2
COC(=O)CCCC1=CC2=C(c3ccccc3)C(=O)C(C)(OC(=O)C3CCCC3)C(=O)C2=CN1CCc1c[nH]c2ccccc12 (stereo not given)	0.7	7	-0.5	5	0.9	.	10	12
C#CCOCCOCCOCCNc1nc(N2CCOCC2)nc(N2CCN(C(=O)[C@H](CCC(=O)O)n3cc(C(N)[C@H](C)CC)nn3)CC2)n1 (stereo not given in full)	1.0	-7	0.1	0	0.3	-2%	6	5.2
COc1cc(SC)ccc1C(=O)Nc1ccc(Cl)cn1	-6.1	12	0.4	5	0.7	21%	4	-0.5
Cc1ccc(C)c(S(=O)(=O)N2CCN(C(=O)c3sccc3C)CC2)c1	-2.9	1	3.1	6	0.5	.	-10	-0.1
CC(=O)Oc1ccc(C2(C)CC(C)(C)Oc3cc(OC(C)=O)ccc32)c(OC(C)=O)c1 (stereo not given)	-3.0	-1	5.1	0	0.2	.	-34	1.4
Cc1ccc(N(CCC(=O)O)S(=O)(=O)c2ccc(C)cc2)cc1	-1.2	1	-1.8	-1	0.6	26%	11	.
CCOc1ccccc1N1CC(C(=O)NC2CCCCCC2)CC1=O (stereo not given)	-4.0	.	.	-2	0.7	4%	.	-1.0
CCCS(=O)(=O)c1c(S(=O)(=O)CCC)c2c(C)cccn2c1C(=O)OC	-5.0	-3	0.4	1	0.2	-1%	-5	.
Cc1nc2ccccc2n1CC(=O)OCC(=O)NCc1ccccc1	3.3	-2	7.1	2	-0.4	3%	-11	2.8
N#C/C(=C1/CCCCCN1)c1nnc2n1CCCCC2	0.8	1	-3.5	0	0.3	0%	-6	-6.4
Cc1c(NC(=O)c2ccc(S(=O)(=O)N3CCOCC3)cc2)cccc1[N+](=O)[O-]	-8.0	-9	9.8	5	-0.1	-2%	-1	-48
COc1ccc(CN(C)C(C)C(=O)NC2CCCc3ccccc32)cc1 (stereo not given)	-2.9	54	-1.7	2	1.3	.	-5	1.3
COc1ccccc1OCc1ccc(C(=O)Nc2ccncc2)o1	2.5	23	-1.0	1	2.5	-4%	-3	.
COc1cc(/C=N/NC(=O)c2cccnc2)cc2c1OCO2	-0.7	-16	9.1	2	-1.1	-4%	5	-0.9
CCC(=O)c1ccc(OCC(=O)OCC(=O)N2c3ccccc3NC(=O)C2(C)C)cc1	-0.4	-12	3.1	-6	0.2	1%	-2	-1.4
Cc1ccc(C)c(NC(=S)N2CCN(c3ccccn3)CC2)c1	-3.1	-15	5.7	-1	-0.9	.	-30	-0.6
Cc1ccc(C(=O)COc2ncnc3cc(Cl)ccc23)cc1	-0.4	-10	0.6	-4	-0.5	-20%	-1	-1.3
COc1ccc(OCCCC(=O)Nc2cc(Cl)ccc2-n2cncn2)cc1	-0.5	-3	1.0	0	0.9	1%	0	-1.5
NS(=O)(=O)c1ccc(CNC(=O)/C=C/c2cccc(Cl)c2)cc1	-0.8	-17	-0.9	1	0.9	15%	-5	.
Cc1ccc(NC(=S)N2CCN(S(=O)(=O)c3ccc(F)cc3)CC2)cc1	-3.2	-4	3.2	-7	-0.1	.	15	0.7

Bioassay records: PubChem, several laboratories
